Screens deposited in PubChem BioAssay by several laboratories.
RanGTP-Imp inh: inhibitors of RanGTP-importin-beta interaction, primary screen, biochemical, FRET, CFP-Ran, YFP-importin-beta, homogeneous. inhibition, % (concentration not given with the values). 300,000 compounds, 1.1% hits. AID 2216. cell-free CFP-Ran/YFP-importin-beta FRET ratio;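 active means most replicates above 15%; inconclusive means exactly half above 15%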;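 further: 0% = DMSO wells and 100% = Ran loaded with GDP instead of GTP; wells of about 40 µL received 100 nL stock; the first replicate is given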
Vif TR-FRET: inhibitors of Vif binding to APOBEC3G peptide, primary screen, biochemical, TR-FRET, GST-Vif 1-94, biotin-A3G peptide, dose response retest (AID 1117319). one-dose inhibition, %; IC50 in µM for titrated hits. 260,000 compounds, 0.57% hits. TR-FRET GST-Vif / biotin-A3G peptide binding; higher % means a stronger effect; test concentration not given here; strong numbers were not always called active;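 active means above the screen mean plus three standard deviations and confirmed in dose response; inconclusive means results disagree or hit not tested in dose response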;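 further: Vif residues 1-94 fused to GST binding biotinylated APOBEC3G peptide 110-148; 0% = full assay without inhibitor and 100% = GST in place of GST-Vif; retest series ran down from 100 µM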
ALR inh: inhibitors of human sulfhydryl oxidase ALR | inhibition, % (no concentration beside the values) | purified ALR, DTT oxidation, H2O2 HRP-luminol luminescence | 290,000 compounds, 3.8% hits | AID 485317;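 active means mean and each replicate at 75% or more; inconclusive means only one of the two met; inactive means neither met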;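 further: stock transfer was 7.5 nL into about 7.5 µL; 0% = neutral wells and 100% = wells with inactivated enzyme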
LANA-H2A inh: blocks KSHV LANA binding to histone H2A/H2B. Q9QR71. cell-free LANA-H2A/H2B peptide, fluorescence polarization. inhibition, % (no concentration beside the values). 320,000 compounds, 0.6% hits. AID 2629; in the data active means inhibition mostly above about 10%, no sharp cut-off; inactive means mostly below about 6.7%;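 further: stock transfer was 7.5 nL into about 10 µL; 0% = median of vehicle wells and 100% = median of positive control wells; one replicate is shown; the record names a cut of 25% in any replicate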
Target sequence (Q9QR71 whole entry, looked up): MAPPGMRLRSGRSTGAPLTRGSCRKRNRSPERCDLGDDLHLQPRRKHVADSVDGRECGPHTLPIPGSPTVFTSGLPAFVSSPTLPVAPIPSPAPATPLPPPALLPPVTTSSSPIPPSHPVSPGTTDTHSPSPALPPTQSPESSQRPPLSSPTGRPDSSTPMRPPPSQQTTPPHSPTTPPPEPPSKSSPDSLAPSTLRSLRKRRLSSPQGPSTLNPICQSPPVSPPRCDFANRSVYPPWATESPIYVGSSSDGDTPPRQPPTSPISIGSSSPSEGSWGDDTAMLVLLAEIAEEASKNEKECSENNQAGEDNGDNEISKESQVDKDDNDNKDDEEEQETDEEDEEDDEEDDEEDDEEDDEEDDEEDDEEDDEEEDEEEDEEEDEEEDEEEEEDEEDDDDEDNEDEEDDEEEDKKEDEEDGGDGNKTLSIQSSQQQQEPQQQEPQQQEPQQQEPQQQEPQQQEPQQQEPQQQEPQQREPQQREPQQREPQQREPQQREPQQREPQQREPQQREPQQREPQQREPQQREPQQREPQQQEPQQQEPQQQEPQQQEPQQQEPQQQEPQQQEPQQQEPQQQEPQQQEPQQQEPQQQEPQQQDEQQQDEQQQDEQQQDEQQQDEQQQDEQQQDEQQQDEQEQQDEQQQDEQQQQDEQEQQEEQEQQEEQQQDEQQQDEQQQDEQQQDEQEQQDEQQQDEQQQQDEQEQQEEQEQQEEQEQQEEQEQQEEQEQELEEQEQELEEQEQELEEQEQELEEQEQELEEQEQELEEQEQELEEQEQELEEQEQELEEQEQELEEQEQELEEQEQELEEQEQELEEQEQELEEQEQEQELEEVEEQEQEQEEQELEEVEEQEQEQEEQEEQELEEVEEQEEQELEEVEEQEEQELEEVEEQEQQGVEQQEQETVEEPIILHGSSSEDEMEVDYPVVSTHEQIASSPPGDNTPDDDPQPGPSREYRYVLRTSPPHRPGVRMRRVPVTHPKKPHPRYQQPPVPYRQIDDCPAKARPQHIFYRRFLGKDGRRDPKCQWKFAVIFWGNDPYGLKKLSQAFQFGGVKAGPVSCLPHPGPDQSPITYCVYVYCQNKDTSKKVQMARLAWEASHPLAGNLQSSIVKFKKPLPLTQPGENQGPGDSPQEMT
HNF4A DNA FP: change in binding of human HNF4 alpha to DNA | HNF4a-FITC DNA binding, fluorescence polarization, 1 h | P41235 | activity change, % at 10 µM | 360,000 compounds, 0.3% hits; in the data active means activity change above about 30%, passing the limit was not always enough;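 further: controls were the assay level and a saturating level of protein; the project sought stronger binding though the title names inhibitors; some compounds called inactive have numbers as strong as hits; positive values seem to mean higher polarization but the record does not say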
B2AR ag: agonists of human beta-2 adrenergic receptor inducing internalization. Am2.2-beta2AR cells, FAP receptor internalization, flow cytometry; reference of the scale not given here. response, % (no concentration beside the values). 340,000 compounds, 0.43% hits. AID 504454;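 active means response above a set limit, near 3 SD of response in nonfluorescent compounds, cut at about 42% in these data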;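 further: stock transfer was 100 nL into about 11 µL; a reference agonist was the positive control; negative values mostly stem from fluorescent compounds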
Calb FLC: affects C. albicans growth with fluconazole | C. albicans CaCi-2 (fluconazole-resistant clinical isolate) + fluconazole, Alamar Blue growth, 48 h | growth inhibition, % (concentration not given with the values) | 300,000 compounds, 0.57% hits | AID 1979;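 active means most replicates above 75%; inconclusive means exactly half above 75%; inactive means most below 75%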;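 further: all wells also contain fluconazole at 8 µg/ml as a sub-toxic cotreatment; 0% = median of DMSO wells and 100% = median of geldanamycin control wells; wells of about 8 µL received 7.5 nL stock; the first replicate is given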
* marks the source's active call; other numbers are inactive results.

How did Brc1ccc(CSc2nnc(-c3ccccn3)n2Cc2ccco2)cc1 do in these assays?
RanGTP-Imp inh: inconclusive; Vif TR-FRET: -2%; ALR inh: 8; LANA-H2A inh: -3.4; HNF4A DNA FP: 7.3; B2AR ag: 2; Calb FLC: 48

How did O=C(Nc1ccc(Cl)cc1)NN1CCCCCC1 do in these assays?
Vif TR-FRET: 0%; HNF4A DNA FP: 10; B2AR ag: 1

What do the screens show for `CC(=O)OC1CC(C)(C)N(OC(=O)c2ccc(N)cc2)C(C)(C)C1`?
Vif TR-FRET: 19%; ALR inh: 98*; LANA-H2A inh: -2.3; HNF4A DNA FP: 4.8; B2AR ag: 5; Calb FLC: -8

How did CCN(C(=O)COC(=O)c1cc2c(s1)CCCC2)c1c(N)n(Cc2ccccc2)c(=O)[nH]c1=O do in these assays?
ALR inh: 21; LANA-H2A inh: -1.3; HNF4A DNA FP: 1.9; B2AR ag: 8

How did Cn1c(=O)c2c(ncn2CCOc2cccc(Br)c2)n(C)c1=O do in these assays?
RanGTP-Imp inh: 0.0; Vif TR-FRET: -6%; ALR inh: -2; LANA-H2A inh: 3.2; HNF4A DNA FP: 2.9; B2AR ag: -9; Calb FLC: -1

Results for Cc1cc(NC(=O)/C=C/C(=O)N(c2ccccc2C)C(C(=O)NC2CCCC2)c2ccc(F)cc2)no1 (stereo not given) ?
RanGTP-Imp inh: 2.1; Vif TR-FRET: -3%; ALR inh: -8; LANA-H2A inh: -8.3; HNF4A DNA FP: 1.1; B2AR ag: -1; Calb FLC: -4

Results for COc1ccc(C2CC(C(F)(F)F)n3nc(C(=O)Nc4c(C)n(C)n(-c5ccccc5)c4=O)c(Cl)c3N2)cc1 (stereo not given) ?
RanGTP-Imp inh: -1.3; Vif TR-FRET: 19%; ALR inh: -1; LANA-H2A inh: 0.4; Calb FLC: -5

How did COc1nc(OC/C(N)=N/O)nc(N2CCOCC2)n1 do in these assays?
RanGTP-Imp inh: -0.7; Vif TR-FRET: -8%; ALR inh: 4; LANA-H2A inh: -1.1; HNF4A DNA FP: -2.5; B2AR ag: 1; Calb FLC: -4

Results for COc1ccc(CNC(=O)Cn2cc([N+](=O)[O-])nc2C)cc1 ?
RanGTP-Imp inh: -2.4; Vif TR-FRET: 24%; ALR inh: -1; LANA-H2A inh: 0.6; HNF4A DNA FP: -0.6; B2AR ag: -6; Calb FLC: 0

Results for Cc1onc(-c2ccccc2)c1-c1nnc(-c2ccccc2C(F)(F)F)o1 ?
RanGTP-Imp inh: 4.4; ALR inh: 6; LANA-H2A inh: 2.0; HNF4A DNA FP: -2.6; B2AR ag: -2; Calb FLC: 8

How did CCCn1c(SCC(=O)c2ccc(OC)c(OC)c2)nc2c1c(=O)n(C)c(=O)n2C do in these assays?
RanGTP-Imp inh: -1.3; Vif TR-FRET: 4%; ALR inh: -2; LANA-H2A inh: 1.5; HNF4A DNA FP: 3.0; B2AR ag: -3; Calb FLC: -3

Results for CC(=O)Nc1sc(C)c(C)c1C(=O)OCC(=O)Nc1ccccc1 ?
Vif TR-FRET: -3%; ALR inh: -3; LANA-H2A inh: 2.4; HNF4A DNA FP: 2.9; B2AR ag: 3

How did CC(C)CCCCCCCCCCCCC(=O)NCC(=O)NC1C(C)OC(Nc2ncnc3nc[nH]c23)C(O)C1O (stereo not given) do in these assays?
Vif TR-FRET: 4%; HNF4A DNA FP: 2.1; B2AR ag: 3

What do the screens show for `C/C(=N\NC(=O)c1nnn(-c2nonc2N)c1CN(C)c1ccccc1)c1cccs1`?
RanGTP-Imp inh: 3.0; ALR inh: 2; LANA-H2A inh: 0.0; HNF4A DNA FP: -3.0; B2AR ag: -4

Results for COc1ccc(CCNC(=O)CSc2nnc(-c3ccccc3)o2)cc1OC ?
RanGTP-Imp inh: 3.6; Vif TR-FRET: 2%; ALR inh: 0; LANA-H2A inh: -2.2; HNF4A DNA FP: 6.4; B2AR ag: -5; Calb FLC: -12

How did COc1ccc(/C(N)=N/OC(=O)CCC2CCCC2)cc1OC do in these assays?
RanGTP-Imp inh: -0.4; Vif TR-FRET: -13%; ALR inh: -3; LANA-H2A inh: 1.6; HNF4A DNA FP: 0.2; B2AR ag: 4; Calb FLC: 3

Results for O=C(CC1NC(=O)NC1=O)Nc1cccc2ccccc12 (stereo not given) ?
RanGTP-Imp inh: 0.6; Vif TR-FRET: 66%; ALR inh: -1; LANA-H2A inh: -2.7; HNF4A DNA FP: -0.2; B2AR ag: -3; Calb FLC: 23

How did COc1ccc(Cl)c(OC)c1C(=O)NC(=O)Nc1nc(C)nc(C)n1 do in these assays?
RanGTP-Imp inh: -1.0; Vif TR-FRET: 0%; ALR inh: 1; LANA-H2A inh: -7.2; HNF4A DNA FP: 0.6; B2AR ag: -2; Calb FLC: 2

Results for O=C(Nc1ccc(NC(=O)C2CC2)cc1)c1cccs1 ?
RanGTP-Imp inh: 4.5; ALR inh: -15; LANA-H2A inh: 1.2; HNF4A DNA FP: 1.4; B2AR ag: -13; Calb FLC: -1

How did COc1ccc(-c2nc(NC3=NCCCCC3)sc2C)cc1 do in these assays?
RanGTP-Imp inh: 6.2; Vif TR-FRET: -3%; ALR inh: 98*; LANA-H2A inh: -1.5; HNF4A DNA FP: -2.0; B2AR ag: 34; Calb FLC: -5

What do the screens show for `COc1ccc(C(=O)OCC(=O)Nc2ccc(N3CCOCC3)cc2)cc1OC`?
Vif TR-FRET: -7%; ALR inh: -11; LANA-H2A inh: -5.5; HNF4A DNA FP: 1.4; B2AR ag: -3

How did CC(C)c1ccc(Nc2nc(Cl)nc(NCCO)n2)cc1 do in these assays?
RanGTP-Imp inh: 1.6; Vif TR-FRET: 3%; ALR inh: 97*; LANA-H2A inh: 1.2; HNF4A DNA FP: 3.3; B2AR ag: -4; Calb FLC: 21

How did CCOC(=O)N1CCC(c2cc(=O)n3[nH]c(-c4ccccc4)cc3n2)CC1 do in these assays?
RanGTP-Imp inh: 0.5; Vif TR-FRET: 0%; ALR inh: -3; LANA-H2A inh: -8.3; HNF4A DNA FP: -2.4; B2AR ag: 0; Calb FLC: -8

Results for O=C(CCCO)NC1Cc2ccccc2C1 ?
RanGTP-Imp inh: -1.7; Vif TR-FRET: inconclusive; ALR inh: -6; LANA-H2A inh: 2.0; HNF4A DNA FP: 5.1; B2AR ag: -5; Calb FLC: 3

What do the screens show for `O=c1c2c(-c3cccs3)csc2[nH]c(=S)n1-c1ccccc1`?
RanGTP-Imp inh: 3.6; Vif TR-FRET: -39%; ALR inh: 90*; LANA-H2A inh: 2.1; HNF4A DNA FP: -1.5; B2AR ag: 5; Calb FLC: 15

What do the screens show for `COc1ccc(C(CNC(=O)c2cc(S(=O)(=O)Nc3cccc(C)c3)ccc2C)N2CCCC2)cc1` (stereo not given)?
Vif TR-FRET: 5%; HNF4A DNA FP: -0.8; B2AR ag: 23

How did S=C(NCC1CC1)N/N=C/c1ccccc1Cl do in these assays?
RanGTP-Imp inh: 1.6; Vif TR-FRET: -1%; ALR inh: 16; LANA-H2A inh: -8.4; HNF4A DNA FP: 3.5; B2AR ag: 5; Calb FLC: -14

How did Cc1c(C(=O)Nc2ccccc2)c2ccc(C(F)(F)F)cc2n1O do in these assays?
RanGTP-Imp inh: 0.2; ALR inh: -3; LANA-H2A inh: 1.8; HNF4A DNA FP: 3.3; B2AR ag: 7; Calb FLC: -2

Results for C/C(=N\OCC(=O)Nc1cc(C)cc(C)c1)c1ccc2c(c1)OCCO2 ?
RanGTP-Imp inh: 2.6; LANA-H2A inh: -2.1; HNF4A DNA FP: 1.8; B2AR ag: 10; Calb FLC: -8

Results for Cc1cccc(N2CCC(N=CN(C)C)=N2)c1 ?
RanGTP-Imp inh: 4.1; Vif TR-FRET: 6%; ALR inh: 99*; LANA-H2A inh: 0.7; HNF4A DNA FP: 2.5; B2AR ag: -2; Calb FLC: 5

How did COc1ccc(CCNC(=O)CN2CCOc3ccccc32)cc1OC do in these assays?
RanGTP-Imp inh: 1.2; Vif TR-FRET: 3%; ALR inh: 14; LANA-H2A inh: -1.9; HNF4A DNA FP: -2.3; B2AR ag: 6; Calb FLC: 5

What do the screens show for `COc1nc(OC)nc(N2CCCCCC2)n1`?
RanGTP-Imp inh: 5.3; Vif TR-FRET: 1%; ALR inh: -10; LANA-H2A inh: 6.4; HNF4A DNA FP: -0.1; B2AR ag: 3; Calb FLC: 1

What do the screens show for `CCOC(=O)[C@@H]1[C@H]2COc3cc(OC)ccc3[C@@H]2N2C(=O)N(c3ccc(OC)cc3)C(=O)[C@@]12C`?
ALR inh: -4; LANA-H2A inh: 0.2; HNF4A DNA FP: 3.0; B2AR ag: 1

Results for O=c1[nH]c2ccc(S(=O)(=O)N3CCN(c4ccc(F)cc4)CC3)cc2o1 ?
RanGTP-Imp inh: inconclusive; Vif TR-FRET: 1%; ALR inh: -12; LANA-H2A inh: -0.5; HNF4A DNA FP: -2.0; B2AR ag: -1; Calb FLC: 6

What do the screens show for `COc1ccc(NC(=O)COC(=O)CCCN2C(=O)c3ccccc3C2=O)cc1Cl`?
RanGTP-Imp inh: -1.7; Vif TR-FRET: 11%; ALR inh: -1; LANA-H2A inh: 2.1; HNF4A DNA FP: 4.7; B2AR ag: 7; Calb FLC: 2

What do the screens show for `COC(=O)c1cc(Br)c(=O)n(Cc2cccnc2)c1`?
RanGTP-Imp inh: -1.7; Vif TR-FRET: -1%; ALR inh: -2; LANA-H2A inh: 2.7; HNF4A DNA FP: 1.0; B2AR ag: 7; Calb FLC: -3

What do the screens show for `O=S1(=O)CCC(N=Cc2cc(Br)ccc2O)C1` (stereo not given)?
RanGTP-Imp inh: 3.6; Vif TR-FRET: 10%; LANA-H2A inh: 9.8; HNF4A DNA FP: -1.2; B2AR ag: 20; Calb FLC: 7

Results for COC(=O)C(=Nc1ccccc1)/C(C(=O)C(=O)N(C)c1ccccc1)=C(\O)c1ccccc1 ?
RanGTP-Imp inh: 1.1; Vif TR-FRET: 28%; ALR inh: 27; LANA-H2A inh: -5.2; HNF4A DNA FP: 0.9; B2AR ag: 0; Calb FLC: 1

Results for COc1ccc(CN2CC(=O)N(c3ccccc3C)C2=S)cc1OC ?
RanGTP-Imp inh: -4.5; Vif TR-FRET: 0%; ALR inh: -2; LANA-H2A inh: -4.7; HNF4A DNA FP: -2.3; B2AR ag: -2; Calb FLC: -8

What do the screens show for `O=C(O)Cn1c(C(F)(F)F)nc2ccccc21`?
RanGTP-Imp inh: -1.2; Vif TR-FRET: 6%; ALR inh: -14; LANA-H2A inh: -0.6; HNF4A DNA FP: -0.2; B2AR ag: 5; Calb FLC: -2

Results for CCC(C)c1ccc(O)c(/C=N/O)c1 (stereo not given) ?
RanGTP-Imp inh: 0.7; Vif TR-FRET: -1%; LANA-H2A inh: 1.6; HNF4A DNA FP: -2.1; B2AR ag: -11; Calb FLC: 3

Quoted from the listing, three compounds:
Results for COc1ccc(CN2CC(=O)N(c3ccccc3C)C2=S)cc1OC ?
RanGTP-Imp inh: -4.5; Vif TR-FRET: 0%; ALR inh: -2; LANA-H2A inh: -4.7; HNF4A DNA FP: -2.3; B2AR ag: -2; Calb FLC: -8

What do the screens show for `O=C(O)Cn1c(C(F)(F)F)nc2ccccc21`?
RanGTP-Imp inh: -1.2; Vif TR-FRET: 6%; ALR inh: -14; LANA-H2A inh: -0.6; HNF4A DNA FP: -0.2; B2AR ag: 5; Calb FLC: -2

Results for CCC(C)c1ccc(O)c(/C=N/O)c1 (stereo not given) ?
RanGTP-Imp inh: 0.7; Vif TR-FRET: -1%; LANA-H2A inh: 1.6; HNF4A DNA FP: -2.1; B2AR ag: -11; Calb FLC: 3

Hits appear at their usual frequency. Share with any hit: about 6.3%.
